Screening data deposited in PubChem BioAssay by National Center for Advancing Translational Sciences (NCATS).
GLA inh pH 4.5: blocks human alpha-galactosidase A at pH 4.5 | P06280 | purified enzyme, 4-MU-alpha-Gal fluorescence, pH 4.5 | activity change, negative = inhibition, % at 105 µM | 230,000 tested, under 10 active | AID 1467; inconclusive = small, poorly fitted or top-dose-only inhibition, or a rising curve; inactive = flat fitted curve, though single readings scatter; no compound was filed as active;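 further: 0% = full activity with enzyme and -100% = basal without enzyme; dose as in the result columns while the protocol names 77 µM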
Target sequence (P06280 whole entry, looked up): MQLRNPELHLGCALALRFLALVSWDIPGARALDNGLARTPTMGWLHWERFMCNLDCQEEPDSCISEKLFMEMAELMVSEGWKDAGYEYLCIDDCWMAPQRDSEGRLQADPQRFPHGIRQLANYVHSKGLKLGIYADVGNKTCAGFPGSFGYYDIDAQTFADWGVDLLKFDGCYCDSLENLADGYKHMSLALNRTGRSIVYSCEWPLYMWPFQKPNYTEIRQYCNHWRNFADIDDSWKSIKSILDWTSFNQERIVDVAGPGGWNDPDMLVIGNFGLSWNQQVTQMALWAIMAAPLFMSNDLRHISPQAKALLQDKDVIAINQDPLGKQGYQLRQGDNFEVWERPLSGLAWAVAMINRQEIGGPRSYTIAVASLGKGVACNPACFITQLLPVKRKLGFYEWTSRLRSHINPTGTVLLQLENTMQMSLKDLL
Rango-impB inh: inhibitors of Rango-importin beta complex formation. Q14974. Rango CFP/YFP FRET sensor + importin beta, 45 min. Potency, µM (titrated, usually from 92.2 µM), without a hit: at the highest dose inhibition of complex formation. 0.031% of 340,000 active; active = rising FRET ratio curve, often small or poorly fitted; inconclusive = mostly compound fluorescence or quenching in the first reads; inactive = flat curves in all reads;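 further: potency means the concentration at half of the fitted maximal effect; 0% = DMSO wells and 100% = buffer wells lacking importin beta; nearly all actives have a fitted effect of over 15% in size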
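FRET biosensor Rango (snurportin 1 IBB between N-terminal EYFP and C-terminal Cerulean), 50 nM in PBS/1 mM DTT/0.02% Tween-20/0.1% BSA, preincubated 5 min RT with compound; 0.125 microM importin beta added, 45 min RT, CFP/YFP FRET ratio read.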
miR-21 reporter: raises the signal of a miR-21 reporter. HeLa miR-21 FLuc reporter, luciferase, 48 h. Potency, µM (top dose mostly 38.3 µM), without a hit: top-dose reporter change, positive = more light. 340,000 tested, under 10 active. AID 2288; active = well fitted rising curve with a large enough effect; inconclusive = small, poorly fitted or top-dose-only effect; inactive = no such curve, though single readings can be large or run the other way;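 further: % of control where 0% means no effect; miR-21 action dims this reporter so a rising signal means less miR-21 action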
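Using DMEM plus 10% FBS, HeLa miR-21-FLuc cells are incubated with test compounds (final up to about 40uM) for 48 hours; firefly luciferase signal is then imaged following reagent-mediated lysis.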
Rango dissoc inh: inhibition of RanGTP-driven Rango-importin beta dissociation; 0.071% of 340,000 active; Potency, µM (doses to about 46.1 µM), without a hit: at the top dose activity change, negative = inhibition; Biochemical FRET Rango-importin beta, RanGTP-induced dissociation; active means falling FRET ratio curve, often poorly fitted, with flat reads before Ran was added; inconclusive means other falling curves, or compound fluorescence or quenching; inactive means flat or rising ratio curve;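 further: potency means the concentration at half of the fitted maximal effect; % of control where 0% means no effect; nearly all actives have a fitted effect of over 45% in size; -100% = wells without RanGTP and RCC1; the record marks most hits as doubtful in a second field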
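Recombinant Rango FRET biosensor (EYFP–snurportin 1 IBB–cerulean CFP10) at 0.1 uM premixed with 0.25 uM importin beta in PBS, 1 mM DTT, 0.02% Tween-20, 0.1% BSA. Compound added 5 min; RanGTP-RCC1 (0.6 uM Ran, 2 mM GTP, 0.2 uM RCC1) then triggers release, read at 45 min.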
An asterisk follows results filed as active; ? = inconclusive; . = no result given; & = joins results of further samples.

Compound	Rango-impB inh	GLA inh pH 4.5	Rango dissoc inh	miR-21 reporter
Cc1[nH]n(-c2ccccc2)c(=O)c1C(c1ccccc1C(=O)O)c1c(C)[nH]n(-c2ccccc2)c1=O	0.4%	5	-3%	1%
CCC1=NN(C(=O)COc2ccccc2C)C(O)(c2ccncc2)C1 (stereo not drawn)	-2.9%	4	?	1%
COc1cccc(CN(C)C(=O)c2cccc(S(=O)(=O)N3CCN(Cc4ccccc4)CC3)c2)c1OC	0.2%	.	-3%	.
O=C(c1ccc([N+](=O)[O-])s1)N1CCN(c2ccccc2)CC1	-2.1%	-2	0%	1%
Cc1c(NC(=O)CSCc2ccco2)c(=O)n(-c2ccccc2)n1C	-3.4%	.	-8%	-2%
Cc1ccc(-c2cc(C(=O)NCc3cnn(C)c3)c3cc(Br)ccc3n2)cc1	-3.1%	-9	0%	-22%&-10%
CCOc1ccc(NCC(=O)Nc2ccc(Cl)cc2C)cc1	-0.3%	-4	-10%	-5%
CCn1c(C)nc2cc(S(=O)(=O)N3CCCCC3)ccc21	6.4%	2	9%	15%
CNC(=S)N(Cc1ccc(OC)cc1)C1CC(=O)N(c2ccc(C(=O)OC)cc2)C1=O (stereo not drawn)	.	-3	.	5%
COC(c1ccccc1)c1nnc(CCC(=O)NCCCc2ccccc2)o1 (stereo not drawn)	-1.0%	-6	1%	-12%
C=CC(=O)NCc1ccc(-c2csnn2)cc1	-0.4%	0	-7%	0%
Cc1nc(N2CCOCC2)c(C#N)c2c1COC(C)(C)C2	-1.7%	0	-4%	-9%
Brc1cccc(-c2nnc(-c3ccccc3)o2)c1	2.8%	-2	-7%	-50%
Cc1cc(F)ccc1NCc1cc2c(cc1[N+](=O)[O-])OCO2	-3.4%	-30	-7%	-22%
O=C(Nc1ccc(Br)cc1)C1Cc2ccccc2O/C1=N\O (stereo not drawn)	0.1%	.	-5%	-85%
CC(=O)Nc1ccc(Oc2nc(C(F)(F)F)nc3ccccc23)cc1	0.8%	.	?	-2%
CC(CCNC(=O)c1ccccc1)(CCNC(=O)c1ccccc1)[N+](=O)[O-]	2.0%	.	1%	.
CN1CCC(OC(=O)COc2ccc(Br)cc2)CC1	3.6%	13	10%	-1%
CC(C)(Oc1ccc(Cl)cc1)C(=O)OCC(=O)Nc1ncc(Cl)cc1Cl	-2.6%	-2	1%	4%
CCOc1nc(C)cc(C)c1S(=O)(=O)c1cccc(Cl)c1	-1.3%	.	-1%	-1%
CCC(C)C(NC(=O)C1CCC(C)CC1)C(=O)Nc1ccc(OC)cc1OC (stereo not drawn)	0.4%	1	-7%	2%
C/C(CCc1ccc2c(c1)OCO2)=N\NC(=S)NC(C)C	-0.6%	-4	9%	-13%
CCOC(=O)C[C@H]1c2cc(F)ccc2S(=O)(=O)N1c1cccc(OC)c1	1.1%	.	-25%	.
CSc1ccc(/C=N/NC(=O)c2cccs2)cc1	-1.2%	-4	3%	-68%
CCc1noc(C)c1C(=O)NC1CCCc2c1cnn2-c1ccc(C(C)(C)C)cc1 (stereo not drawn)	3.1%	.	8%	-6%
C[C@H](CO)N1C[C@H](C)[C@@H](CN(C)C(=O)Nc2ccc(C(F)(F)F)cc2)Oc2c(NS(=O)(=O)c3ccccc3)cccc2C1=O	?	.	-13%	.
COc1ccc(CC(=O)Nc2c3c(nn2C(C)(C)C)CS(=O)C3)cc1 (stereo not drawn)	0.5%	1	-7%	-3%
COc1ccc(C)cc1S(=O)(=O)N1CCc2ccccc2C1	-0.6%	.	-4%	-6%
CNS(=O)(=O)c1ccc2c3c(cccc13)C(=O)N2	?	.	-30%	-18%
Cc1ccc(-c2nc(NCCN(C)C)c3ccccc3n2)cc1	-1.6%	.	5%	-26%
CN1C(=O)N(C)C(c2ccccc2Cl)C2=C1CC(C)(C)CC2=O (stereo not drawn)	-2.1%	.	-6%	1%
COC(=O)c1ccccc1N/C=C/C(=O)c1ccc(Br)cc1	?	-6	?	-55%
O=C(NC1CCN(S(=O)(=O)c2ccccc2)CC1)c1ccc(F)cc1	1.1%	.	-7%	0%
O=C(NCc1ccc2c(c1)OCO2)c1ccc(NS(=O)(=O)c2ccc3c(c2)OCCO3)cc1	0.5%	-3	?	-5%
Cc1noc(C(F)(F)F)c1C(=O)NNC(=O)c1cccc(C(F)(F)F)c1	-0.3%	10	-4%	0%
CCCCn1c(N)c(N(CCOC)C(=O)C2CCN(C(=O)c3ccc(Cl)cc3)CC2)c(=O)[nH]c1=O	1.9%	.	7%	.
C[C@H]1COC(=O)[C@H](CC(=O)OC(C)(C)C)C/C=C\C[C@@H](CC(=O)N[C@@H](CO)Cc2ccccc2)C(=O)N1	9.6%	.	29%	.
Cc1ccc(NC(=O)CSCC(=O)Nc2ccccc2C(=O)N2CCCCC2)cc1	-4.1%	.	9%	.
CC(C)NC(=O)NC(=O)COC(=O)c1ccc(NC(=O)CC#N)cc1	?	3	-13%	-4%
O=C(O)CCC(=O)Nc1cccc2cccnc12	-1.3%	-6	12%	0%
CCOC(=O)c1cc(C)nc(Sc2ccc(C)cc2)c1C#N	2.9%	5	-1%	13%
Cc1cc(SCC(=O)N2CCCC2=O)nc2c(C)cccc12	-2.5%	.	0%	.
O=C(CCSCc1ccccc1F)N1CCN(c2ccccn2)CC1	-0.4%	13	-3%	-54%
O=C(Nc1ccn(Cc2c(F)c(F)c(F)c(F)c2F)n1)c1ccc(COc2ccccc2Cl)cc1	-2.6%	-1	13%	-5%
Cc1ccc(S(=O)(=O)N2CCC(C(=O)NCc3cccnc3)CC2)cc1	0.8%	-1	6%	-3%
CCC(C)NC(=O)C1CCN(C(=O)c2ccccc2)CC1 (stereo not drawn)	0.0%	4	-11%	-3%
O=C(/C=C/c1ccc(Cl)cc1)NCc1ccncc1	0.0%	3	9%	-3%
Cc1cccc(C)c1OCC(=O)Nc1ccccc1C(F)(F)F	3.4%	0	5%	-1%
Cc1ccc(NC(=O)CCn2cnc3ccccc3c2=O)cc1	-3.1%	6	18%	-3%
COc1ccc(NC(=O)CN(C)S(=O)(=O)c2ccc3c(c2)CC(C)N3C(C)=O)c(OC)c1 (stereo not drawn)	2.1%	.	1%	-1%
CCOC(=O)c1[nH]c2ccc(OC)cc2c1NC(=O)CCN1CCSCC1	2.9%	2	8%	-9%
CC(C)(C)n1nnnc1C(c1cccnc1)N(Cc1ccccc1)Cc1ccco1 (stereo not drawn)	-0.7%	-26	1%	2%
O=C(NCc1cccc(C(F)(F)F)c1)c1ccc(=O)[nH]c1	?	.	1%	3%
Cc1ccc(F)c(NC(=O)c2c(-c3ccccc3)noc2C)c1	-2.8%	.	6%	1%
COc1cc(OC)cc(C(=O)Nc2ccc(S(=O)(=O)N(C)C)cc2)c1	-2.4%	-5	-12%	-6%
CCOC(=O)c1c(C)n(C)c2cc(-c3ccc(F)cc3)c(O)cc12	4.7%	1	11%	-8%
CC1CN(S(=O)(=O)c2ccc(C(=O)NCCCn3ccnc3)cc2)CC(C)O1 (stereo not drawn)	1.6%	8	-6%	?
FCCCOc1ccc(CN2CCN(c3ccccc3F)CC2)cc1	-1.3%	-4	1%	1%
Cc1ccc2oc(=O)n(CCCOc3ccccc3C)c2c1	-1.8%	-4	5%	-35%
Cc1cc(C(F)F)n2ncc(C(=O)N3CCCCC3)c2n1	-2.4%	-6	1%	-9%

(list continues)
Compound	Rango-impB inh	GLA inh pH 4.5	Rango dissoc inh	miR-21 reporter
Clc1cccc(CON/C=N/c2ncnc3sccc23)c1	0.3%	-8	1%	14%
Cc1csc(NC(=O)c2nc3nccc(C)n3n2)n1	1.8%	-7	2%	-43%
Cc1c(NC(=O)C(C)OC(=O)c2cc(Cl)nc(Cl)c2)c(=O)n(-c2ccccc2)n1C (stereo not drawn)	5.6%	-14	13%	-4%
Cc1cc(C)n(-c2ccc(C(=O)OCC(=O)N3CCN(c4ccccc4)CC3)cc2)n1	6.2%	.	5%	.
O=C(Nc1ccc(N2CCN(c3ccccc3)CC2)c(F)c1)C1CC1	-0.5%	10	17%	3%
O=C(c1ccoc1)N1CCC2(CC1)Oc1ccc(Cl)cc1C(=O)C21CC(c2ccc(Cl)cc2)=NO1 (stereo not drawn)	0.2%	-7	6%	-5%
COc1ccccc1N1CCN(c2ccnc3cc(Cl)ccc23)CC1	-3.2%	.	14%	24%
Cc1ccc2oc(C(=O)Nc3cc(C)on3)c(C)c2c1	-1.3%	.	18%	.
CC1CCCN(C(=O)COC(=O)c2n[nH]c3ccccc23)C1 (stereo not drawn)	0.5%	4	-19%	-53%
CC1CCCN(c2nc3ccsc3c(=O)s2)C1 (stereo not drawn)	-0.2%	4	-7%	-88%
OCCC1CN(Cc2cccn2-c2ccccn2)CCN1Cc1ccccc1 (stereo not drawn)	?	-8	0%	-3%
C=CCN1C(=O)C(Cc2ccc(OCC)cc2)S/C1=N\N=C\c1cccs1 (stereo not drawn)	-0.1%	0	-2%	-1%
O=C(NCC(c1ccco1)N1CCCCC1)c1ccc(S(=O)(=O)Nc2ccccc2Cl)cc1 (stereo not drawn)	4.3%	.	-1%	.
CC1Nc2ncnc(N3CCOCC3)c2N(Cc2ccccc2)C1=O (stereo not drawn)	-2.6%	.	-15%	.
CN(CC(=O)Nc1ccc(Cl)c(C(F)(F)F)c1)C(=O)Cc1n[nH]c(=O)c2ccccc12	-0.8%	.	-3%	.

In the list so far, these contain a tert-butyl group.
Compound	Rango-impB inh	GLA inh pH 4.5	Rango dissoc inh	miR-21 reporter
CCc1noc(C)c1C(=O)NC1CCCc2c1cnn2-c1ccc(C(C)(C)C)cc1 (stereo not drawn)	3.1%	.	8%	-6%
COc1ccc(CC(=O)Nc2c3c(nn2C(C)(C)C)CS(=O)C3)cc1 (stereo not drawn)	0.5%	1	-7%	-3%
C[C@H]1COC(=O)[C@H](CC(=O)OC(C)(C)C)C/C=C\C[C@@H](CC(=O)N[C@@H](CO)Cc2ccccc2)C(=O)N1	9.6%	.	29%	.
CC(C)(C)n1nnnc1C(c1cccnc1)N(Cc1ccccc1)Cc1ccco1 (stereo not drawn)	-0.7%	-26	1%	2%

Other entries follow.
Compound	Rango-impB inh	GLA inh pH 4.5	Rango dissoc inh	miR-21 reporter
Cc1cc(C)c(C)c(S(=O)(=O)Nc2ccccc2C(=O)O)c1C	-1.7%	-1	41%	-3%
COc1ccc(NC(=O)N(C)C[C@H]2Oc3c(NC(=O)Nc4ccc5c(c4)OCO5)cccc3C(=O)N([C@H](C)CO)C[C@@H]2C)cc1	0.3%	.	-10%	.
COc1ccccc1NC(=O)N(c1c(N)n(Cc2ccccc2)c(=O)[nH]c1=O)C1CCCC1	3.2%	-13	-2%	-7%
Cn1c(=O)c2cc(S(=O)(=O)N3CCN(c4cccc(C(F)(F)F)c4)CC3)ccc2n(C)c1=O	-1.2%	5	-1%	3%
CCOC(=O)c1ccc2c(c1)N(CC#N)C(=O)C(C)(C)O2	-2.0%	4	-11%	-18%
O=C(CSc1nnc(COc2ccc(Br)cc2)o1)N1CCOCC1	1.4%	-5	20%	-2%
COc1ccccc1CN1CCCC(N2CCN(c3ccccc3OC)CC2)C1 (stereo not drawn)	6.1%	.	26%	0%
COc1ccc(NC(=S)N(CCN(C)C)C(C)c2ccncc2)cc1Cl (stereo not drawn)	-2.4%	4	-14%	-6%
CCOC(=O)c1ccccc1NC(=O)c1ccccc1SC	-7.9%	1	-2%	8%
O=C(/C=C/c1ccc(OCc2c(F)cccc2Cl)cc1)N1CCOCC1	-2.1%	-1	23%	2%
COc1ncnc(OC)c1NC(=O)c1ccc(F)cc1	-1.0%	-9	-8%	-1%
CCC(C)n1c(SCC(=O)Nc2cc(C)on2)nc2ccccc2c1=O (stereo not drawn)	0.7%	-2	-10%	15%

This is a subset (hit frequency here may not be typical).
